Compound activity as filed in PubChem BioAssay.
Vif A3G: inhibitors of Vif binding to APOBEC3G peptide, primary screen, biochemical, TR-FRET, GST-Vif 1-94, biotin-A3G peptide, dose response retest (AID 1117319); TR-FRET GST-Vif / biotin-A3G peptide binding; higher % means a stronger effect; test concentration not given here; strong numbers were not always called active; inhibition, %; hits with a dose series show IC50 in µM; hit rate 0.57% among 260,000;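 active = above the screen mean plus three standard deviations and confirmed in dose response; inconclusive = results disagree or hit not tested in dose response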;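 note: Vif residues 1-94 fused to GST binding biotinylated APOBEC3G peptide 110-148; 0% = full assay without inhibitor and 100% = GST in place of GST-Vif; retest series ran down from 100 µM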
Beta2AR agonist: activates human beta-2 adrenergic receptor causing internalization | P07550 | Am2.2-beta2AR cells, FAP receptor internalization, flow cytometry; reference of the scale not given here | response, % (concentration not given with the values) | hit rate 0.43% among 340,000 | AID 504454;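 active = response above a set limit, near 3 SD of response in nonfluorescent compounds, cut at about 42% in these data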;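 note: stock transfer was 100 nL into about 11 µL; a reference agonist was the positive control; negative values mostly stem from fluorescent compounds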
UCH37 DUB inh: human UCH37 deubiquitinating enzyme inhibition; Q9Y5K5; purified proteasome/UCH37, Ub-AMC cleavage fluorescence; inhibition, % (concentration not given with the values); hit rate 0.33% among 330,000; AID 588478;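 active = mean of two replicates above 20%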;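 note: 0% = compound-free wells with enzyme and 100% = wells lacking proteasome; stock transfer was 100 nL into about 20 µL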
Target sequence (Q9Y5K5 whole entry, looked up): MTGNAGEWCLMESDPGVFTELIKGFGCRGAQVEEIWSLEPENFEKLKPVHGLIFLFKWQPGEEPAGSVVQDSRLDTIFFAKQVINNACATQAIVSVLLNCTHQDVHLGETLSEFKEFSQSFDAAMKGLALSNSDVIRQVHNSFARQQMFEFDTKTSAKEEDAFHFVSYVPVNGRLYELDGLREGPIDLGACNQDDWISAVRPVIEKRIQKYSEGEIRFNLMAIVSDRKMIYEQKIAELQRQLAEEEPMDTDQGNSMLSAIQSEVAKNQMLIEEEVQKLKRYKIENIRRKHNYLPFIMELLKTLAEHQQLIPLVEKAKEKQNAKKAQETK
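Test system – human UCH37 enzyme supplied as purified proteasome complex · Incubation – 30 min preincubation with enzyme, 25 min cleavage at room temperature · Detection – AMC fluorescence from Ub-AMC cleavage, excitation 355 nm, emission 460 nm · Benchmarks – no-proteasome wells (full inhibition) and compound-free wells (no inhibition)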
Ecoli growth: inhibitors of Escherichia coli growth; OD600, 23 h; stronger effect = lower value; OD600 absorbance (test concentration not listed); hit rate 0.21% among 330,000; AID 1053175;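 active = OD600 absorbance below the run mean of sample wells minus 3.6 SD, in any replicate, cut at about 0.56 in these data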;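 note: stock transfer was 300 nL into about 60 µL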
A1 inh: inhibitors of the anti-apoptotic protein A1, read as caspase activation | MEF A1-2A-BIM cells, Caspase-Glo 3/7 luminescence, 3 h; percent of clofoctol response, vehicle zero | caspase activation, % (no concentration beside the values) | hit rate 0.066% among 330,000;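 active = over half of replicate activation scores above 10%, or exactly half above 10 with the replicate mean above 10; inconclusive = replicate mean below 10 yet half the replicates above 10; inactive = over half of replicates below 10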;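 note: wells of about 30 µL received 50 nL stock; many hits fall short of the cut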
HNF4A DNA FP: change in binding of human HNF4 alpha to DNA. P41235. HNF4a-FITC DNA binding, fluorescence polarization, 1 h. activity change, % at 10 µM. hit rate 0.3% among 360,000; in the data active = activity change above about 30%, passing the limit was not always enough;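 note: controls were the assay level and a saturating level of protein; the project sought stronger binding though the title names inhibitors; some compounds called inactive have numbers as strong as hits; positive values seem to mean higher polarization but the record does not say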
Target sequence (P41235 whole entry, looked up): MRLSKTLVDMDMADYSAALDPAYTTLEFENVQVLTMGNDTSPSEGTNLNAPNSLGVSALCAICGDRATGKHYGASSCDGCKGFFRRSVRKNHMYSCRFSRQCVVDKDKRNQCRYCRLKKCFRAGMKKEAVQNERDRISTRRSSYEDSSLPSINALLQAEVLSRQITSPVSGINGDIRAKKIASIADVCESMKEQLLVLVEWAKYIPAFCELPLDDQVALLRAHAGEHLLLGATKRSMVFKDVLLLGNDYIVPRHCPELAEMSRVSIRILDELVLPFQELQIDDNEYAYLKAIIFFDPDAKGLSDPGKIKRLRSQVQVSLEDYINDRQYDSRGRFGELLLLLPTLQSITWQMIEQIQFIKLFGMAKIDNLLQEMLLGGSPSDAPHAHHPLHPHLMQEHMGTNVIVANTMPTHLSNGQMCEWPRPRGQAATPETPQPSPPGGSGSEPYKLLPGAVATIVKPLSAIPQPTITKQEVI
LANA-H2B inh: blocks KSHV LANA binding to histone H2A/H2B | inhibition, % (concentration not given with the values) | Q9QR71 | cell-free LANA-H2A/H2B peptide, fluorescence polarization | hit rate 0.6% among 320,000; in the data active = inhibition mostly above about 10%, no sharp cut-off; inactive = mostly below about 6.7%;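 note: stock transfer was 7.5 nL into about 10 µL; 0% = median of vehicle wells and 100% = median of positive control wells; one replicate is shown; the record names a cut of 25% in any replicate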
* = called active by the depositor; i = inactive; ? = inconclusive; · = not tested or not shown.

Values run as follows: Vif A3G	Beta2AR agonist	UCH37 DUB inh	Ecoli growth	A1 inh	HNF4A DNA FP	LANA-H2B inh
> COCCN(C(=S)Nc1ccccc1OC)C1CCN(C(C)C)CC1
    4%	5	0.1	0.69	-0.7	-1.8	3.7
> Cc1ccc(NC(=O)c2sc3nc(CCl)[nH]c(=O)c3c2C)c(C)c1
    ?	9	5.5	0.7	·	13	·
> O=c1oc2ccccc2cc1-c1csc(Nc2nc3ccc(F)cc3s2)n1
    -5%	·	1.6	0.66	0.6	·	1.0
> CCN(CCn1cccn1)C(=O)C1CCC(=O)N(CCc2cccc(F)c2)C1 (stereo not drawn)
    ·	1	4.0	0.71	-0.8	4.0	3.1
> COc1ccc(NC(=O)CCNS(=O)(=O)c2ccc3c(c2)CCC(=O)N3)cc1
    4%	-2	-0.2	0.68	0.4	2.0	1.8
> CCOC(=O)Cc1cc(=O)n2[nH]c(-c3ccccc3)c(-c3ccccc3)c2n1
    -12%	-1	-7.6	0.72	0.5	3.1	-0.7
> COc1ccc(Nc2cc(C(=O)NCCCN3CCOCC3)c3ccccc3n2)cc1
    ·	6	5.4	0.68	0.2	0.7	1.9
> CCn1nnnc1SCC(=O)N(C)C1CCS(=O)(=O)C1 (stereo not drawn)
    ·	2	·	·	-1.2	1.7	5.5
> CCCCCCCCCC(=O)Nn1cnc2ccccc2c1=O
    ·	-7	5.5	0.68	0.3	-1.0	-7.3
> O=C(NCCc1ccccn1)C1CCCN1S(=O)(=O)c1ccc(Cl)cc1 (stereo not drawn)
    ·	-4	-0.2	0.67	-0.8	-0.6	-0.4
> CCN(CC)C(=O)CSc1nnc(-c2ccc(S(=O)(=O)N3CCCC3)cc2)o1
    4%	-7	6.4	0.68	0.6	-0.4	9.0
> Cc1ccc(-c2noc(C3CCCN(C(=O)c4ccc(F)cc4F)C3)n2)cc1 (stereo not drawn)
    -1%	6	3.5	0.66	-0.5	0.1	-3.1
> COc1cc(O)c(C(CC(=O)N2CCCC2)c2cc(OC)c(OC)c(OC)c2)c(OC)c1 (stereo not drawn)
    2%	-5	-0.6	0.68	0.2	1.2	-1.2
> CCOc1ccc(-n2c(SCC(=O)NCc3ccco3)nc3c([nH]c4ccccc43)c2=O)cc1
    ·	8	-2.9	0.65	0.6	-1.9	1.3
> O=C(O)C1CCCCC1C(=O)Nc1ccc(S(=O)(=O)N2CCCCC2)cc1 (stereo not drawn)
    ·	4	0.9	0.65	-0.5	0.2	1.1
> O=C(Nc1ccc(Cl)cc1Cl)N1CCN(c2ncccn2)CC1
    ·	5	-0.2	0.68	-0.1	4.7	-0.1
> COc1ccc(CN2C=C3C(=O)C(C)(OC(=O)CCc4ccccc4)C(=O)C=C3C=C2c2ccc(C#N)cc2)cc1 (stereo not drawn)
    ·	-5	-1.1	0.69	-1.0	4.7	-0.3
> COc1ccc(C)cc1NC(=O)C1CCCN(S(=O)(=O)c2cccnc2)C1 (stereo not drawn)
    ·	0	0.9	0.7	-0.3	4.0	3.9
> COC(=O)C1=C(C)NC(C)=C(C(=O)OC)C1c1ccc(OC(=O)c2oc3ccccc3c2C)c(OC)c1
    18%	2	-65	0.76	-0.5	-4.3	-4.4
> O=C(NCC1OCCCN1S(=O)(=O)c1cc(F)ccc1F)C(=O)NC1CCCCCC1 (stereo not drawn)
    ·	0	2.5	0.73	-0.9	-1.0	0.8
> COc1ccc(S(=O)(=O)N2CC(C(=O)O)Oc3ccc(Cl)cc32)cc1 (stereo not drawn)
    -3%	8	2.2	0.69	-0.5	3.0	-2.3
> Nc1cccc(C(=O)OCC(=O)c2ccccc2)c1
    13%	·	2.2	0.68	-6.8	-0.1	0.3
> CCOC(=O)/C(C#N)=N\Nc1ccc(S(=O)(=O)Nc2nc(C)cc(C)n2)cc1
    23%	1	·	·	0.1	-1.1	-0.1
> C=CCC(CC(O)COCCC)C(=O)NNC(=S)Nc1ccccc1 (stereo not drawn)
    ·	6	1.1	0.63	-0.3	-0.2	-2.2
> CC(=O)NC(Cc1ccccc1)C(=O)NC1CCN(C(=O)NCc2ccccc2)CC1 (stereo not drawn)
    ·	-11	0.1	0.68	·	-1.8	·
> O=C(CCN1C(=O)c2ccccc2C1=O)NCCN1CCOCC1
    -2%	-3	3.0	0.73	-0.9	0.0	-5.6
> COc1ccc(C=O)cc1Cn1ccnc1
    -6%	4	4.2	0.63	2.1	0.1	-0.9
> Cc1ccc(-c2cc(C(=O)Nc3c(C)n(C)n(-c4ccccc4)c3=O)c3ccccc3n2)cc1
    -5%	6	3.3	0.67	-0.1	-4.9	1.7
> CC(Oc1ccc2c(-c3ccccc3)cc(=O)oc2c1)C(=O)N1CCC[C@@H]1C(N)=O (stereo partly drawn)
    ·	-5	0.6	0.69	1.2	6.3	-9.7
> Cc1ccsc1C1Nc2ccc3ncccc3c2C2=C1C(=O)CCC2 (stereo not drawn)
    5%	-14	-57	0.72	0.2	2.2	1.9
> CCc1nnc(NC(=O)C2CCN(c3nc(C)cc(C)n3)CC2)s1
    -5%	8	-1.4	0.66	0.1	-3.0	-4.8
> Nc1[nH]ncc1C(=O)Nc1cccc(C(F)(F)F)c1
    -7%	5	1.5	0.67	-0.3	-0.9	-1.7
> CN(Cc1cccnc1)C(=O)CC1C(=O)NCCN1Cc1ccc(-c2ccccc2)cc1 (stereo not drawn)
    3%	-2	0.2	0.7	0.4	1.2	3.3
> C[C@H](NC(=O)C1CCN(S(=O)(=O)c2ccccc2)CC1)C(=O)NCc1ccc(Cl)c(Cl)c1
    0%	4	0.3	0.71	-1.0	-1.1	-3.3
> CCc1cc2c(Nc3ccc(O)cc3)nc(C)nc2s1
    ·	8	5.1	0.69	-0.1	-0.2	-0.9
> C/C(=N\NC(=O)c1nn(C)cc1Br)c1cccc(NC(=O)C2CCCC2)c1
    17%	-9	·	·	0.6	1.7	4.5
> COc1ccc(C(=O)Nc2cc(OC)c(NC(=O)c3ccco3)cc2OC)cc1
    14%	0	0.1	0.68	-0.9	2.9	2.4
> CC(=O)c1cccc(N(CC(=O)Nc2cccnc2)S(C)(=O)=O)c1
    -1%	0	3.1	0.7	2.2	-5.4	0.2
> CC(C)CCN(C)C1CCN(S(=O)(=O)c2cccc(C(F)(F)F)c2)CC1
    3%	0	2.8	0.73	-0.1	2.5	25*
> O=C(C(=O)c1ccc(O)cc1)c1ccccc1
    ·	-1	7.7	0.67	0.7	2.1	4.3
> COc1ccc(OC)c(S(=O)(=O)NC(C)c2cnn(-c3ccccn3)c2C)c1 (stereo not drawn)
    4%	-3	4.7	0.71	1.1	0.6	-9.2
> C=C(C)COc1ccc(-c2[nH]ncc2-c2ccc(OC)cc2)c(O)c1
    -9%	-4	2.0	0.68	0.3	-0.4	-3.2
> Cc1nnc(N/N=C/c2ccc(Br)cc2)n1N
    ·	-10	·	·	0.4	-2.0	-4.8
> C[C@@H]1COC(=O)[C@@H](CC(=O)OC(C)(C)C)C/C=C\C[C@H](CC(=O)NCCO)C(=O)N1
    ·	-5	4.9	·	-0.4	7.5	-12
> COC(=O)c1ccc(-c2nc3ccc(C)cc3o2)cc1
    19%	-7	-77	0.67	-6.9	-1.3	-0.2
> COc1ccc(OC)c(NC(=O)c2cccnc2)c1
    ·	0	3.2	0.71	0.4	-0.9	-0.8
> Nc1c(C(=O)Nc2cccc(F)c2)nnn1-c1ccc2c(c1)OCCO2
    ·	10	3.9	0.73	-8.6	1.0	-0.6
> COc1cc(NC(=O)Cn2nnc(-c3ccccc3N)n2)cc(OC)c1
    -4%	-2	1.7	0.62	-0.2	1.6	-1.5
> CN(C(=O)c1ccc(N2CCCCC2)c([N+](=O)[O-])c1)C1(C)CCS(=O)(=O)C1 (stereo not drawn)
    1%	-10	4.6	0.7	0.4	1.4	0.8
> Cc1ccc(S(=O)(=O)N(C)CC(=O)Nc2nnc(CC(C)C)s2)cc1
    -1%	5	3.3	0.71	1.0	-0.9	-2.0
> CC(COc1ccc(C(C)C)cc1)NC(=O)c1ccc(Br)o1 (stereo not drawn)
    ·	1	·	·	0.2	6.5	5.9
> N#CC(c1ccc(F)cc1)c1ccc(C(=O)c2ccccc2)cc1 (stereo not drawn)
    1%	-11	3.9	0.72	0.5	1.1	2.7
> CCSc1n[nH]c2nc3c(c(=O)n12)C1(CCCCC1)Cc1ccccc1-3
    -15%	2	-27	0.72	-0.7	8.4	8.1
> CN(CC(=O)N1CCN(c2ccccc2)CC1)C1CCCc2ccccc21 (stereo not drawn)
    ·	8	0.2	0.67	0.5	-1.9	3.8
> COc1ccc(C(=O)NCC(=O)NCCc2c[nH]c3ccccc23)cc1OC
    ·	1	4.8	0.73	0.3	4.3	-3.4
> CC(C)CNC(=O)c1ccccc1NC(=O)c1ccccc1N(C)S(C)(=O)=O
    1%	-1	6.0	0.71	0.2	-0.9	4.0
> O=C(O)c1cc(-c2cccc(Cl)c2)nc2nc(N3CCCCC3)sc12
    ·	2	i	0.73	-0.9	-2.4	-2.1
> CC(=O)Nc1ccc(OCC(O)CNC2CCCC2)cc1 (stereo not drawn)
    39%	1	1.5	0.66	-1.0	0.0	1.4
> COc1ccc(/C=C/C(=O)OCC(=O)NC(C)CCc2ccccc2)cc1 (stereo not drawn)
    -12%	-6	0.3	0.7	-1.1	-4.7	0.9
> O=C1CCC/C=C/C[C@@H](CC(=O)N(CCO)Cc2ccccc2)C(=O)NC[C@@H](c2ccccc2)O1
    ·	0	0.0	0.79	1.8	-2.7	5.4

Next part:
Values run as follows: Vif A3G	Beta2AR agonist	UCH37 DUB inh	Ecoli growth	A1 inh	HNF4A DNA FP	LANA-H2B inh
> CCN(CC)Cc1c(O)ccc2cc(-c3nc4ccccc4n3C)c(=O)oc12
    1%	5	i	0.67	1.1	-6.9	-1.1
> O=c1oc(CCCO)cc2ccc(C#CC3(O)CCCCC3)cc12
    ·	6	1.4	0.78	-1.4	-0.3	1.4
> CCCNC(=S)N1CCC(c2nc3cc(C)c(C)cc3[nH]2)CC1
    -2%	-6	3.3	0.66	0.4	-3.2	1.7
> O=C(O)c1cnc(-c2ccccc2)nc1Oc1ccccc1
    -2%	-10	-0.1	0.67	0.0	-6.5	1.5
> Cc1ccc(NS(=O)(=O)c2ccc(-c3coc(C)n3)cc2)c(Br)c1
    ·	-2	1.0	0.65	2.5	6.1	4.8
> O=C(NCCc1c[nH]c2ccccc12)c1cnc2sccn2c1=O
    -1%	-10	11	0.74	-0.3	1.1	-2.2
